# PABP FP inh = PABP poly(A) RNA binding inhibitors, primary screen, biochemical, fluorescence polarization, uHTS. Polyadenylate-binding protein 1 (Homo sapiens), P11940. inhibition, % at 35 µM. 290,000 compounds, 1% hits;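 active = 50% or more with normal probe brightness, or confirmed in later tests; inconclusive = above 50% with abnormal brightness, or retests that disagree; inactive = below 50% or failed in later tests; about a fifth of its hits are not listed in these tables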;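 note: calls also rest on retests at 20 µM and on dose response follow-up; controls were probe without protein and protein plus probe with vehicle; some compounds called inactive have numbers as strong as hits; many hits fall short of the cut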
# Target sequence (P11940 whole entry, looked up): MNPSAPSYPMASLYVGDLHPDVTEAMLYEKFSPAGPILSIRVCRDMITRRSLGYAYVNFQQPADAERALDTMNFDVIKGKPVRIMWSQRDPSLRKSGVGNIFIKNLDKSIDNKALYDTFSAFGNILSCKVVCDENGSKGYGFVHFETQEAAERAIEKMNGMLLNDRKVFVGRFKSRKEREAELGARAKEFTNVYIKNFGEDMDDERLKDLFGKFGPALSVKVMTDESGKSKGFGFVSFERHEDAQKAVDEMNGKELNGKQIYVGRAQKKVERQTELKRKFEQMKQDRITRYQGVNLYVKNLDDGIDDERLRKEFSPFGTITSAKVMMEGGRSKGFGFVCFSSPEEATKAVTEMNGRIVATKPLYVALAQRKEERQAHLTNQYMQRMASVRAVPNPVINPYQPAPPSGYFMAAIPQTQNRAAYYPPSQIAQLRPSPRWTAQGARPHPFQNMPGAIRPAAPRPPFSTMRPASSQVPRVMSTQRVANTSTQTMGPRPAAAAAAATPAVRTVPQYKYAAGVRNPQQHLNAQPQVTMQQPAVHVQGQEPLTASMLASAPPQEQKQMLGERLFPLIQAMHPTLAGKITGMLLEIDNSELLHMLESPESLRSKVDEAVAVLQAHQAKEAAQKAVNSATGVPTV
# Env fusion inh = inhibitors of HIV-1 Env-driven cell-cell fusion, primary screen, HeLa-JRFL effector, CEM21 target cells, luciferase; inhibition, % at 12.3 µM; 360,000 compounds, 1.1% hits; AID 651610, 2012;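 active = mean replicate inhibition score of at least 50 and every replicate individually at or above 50; inconclusive = only one of the two criteria met; inactive = mean below 50 and not all replicates reaching 50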;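 note: 0% = plate neutral controls and 100% = maraviroc near 300 nM; one replicate is shown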
# CSC inhib = cancer stem cell viability inhibitors, primary screen, luminescence | inhibition, % at 7.5 µM | AID 2717, 2010 | 300,000 compounds, 1.1% hits | cancer stem cell-like cells viability;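 active = mean at 75% or more and at least half the replicates too; inconclusive = mean and replicates disagree; tested in HMLE shEcad cells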;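 note: 0% = median of negative and 100% = median of positive control wells; the first replicate is given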
# MT1-MMP act inh = blockers of MT1-MMP proenzyme processing, primary screen, HT1080 RFP-PRO-GFP cells, GFP/RFP fluorescence; Matrix metalloproteinase-14 (Homo sapiens), P50281; GFP/RFP ratio fluorescence, overnight; percent of plate control window, DMSO zero; GFP/RFP ratio change, % at 20 µM; 360,000 compounds, 0.061% hits;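 active = GFP/RFP ratio change of at least 30% with cell ATP level not reduced by more than half and red fluorescence within 50% of control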; note: strong numbers were not always called active
#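 Assay system: HT1080 cells carrying an RFP-PRO-GFP reporter | Dosing: Single dose of 20 µM compound, 1% DMSO final | Incubation: Cells overnight before dosing, compound overnight, 37 °C, 5% CO2 | Evaluation: GFP/RFP fluorescence ratio | Control set: DMSO and RFP-L50D-GFP cell wells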
# Rce1 inhib = yeast Rce1p protease inhibitors, primary screen, biochemical, fluorescence, cell-free homogeneous; CAAX prenyl protease 2 (Saccharomyces cerevisiae (strain ATCC 204508 / S288c)), Q03530; AID 2563, 2010; 290,000 compounds, 0.27% hits; yeast membranes, quenched prenylated peptide cleavage fluorescence; calls only;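 active = fall in fluorescence gain of 50% or more versus controls, with final raw signal at or below 3038400; inconclusive = same 50% fall but final raw signal above 3038400; inactive = fall in fluorescence gain under 50%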;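 note: plate controls were neutral control wells for no effect and wells lacking membranes for full effect; tested at 10 µM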
# Yeast UUG start = modulators of yeast start codon fidelity, primary screen, whole organism, S. cerevisiae, single point, plate reader. S. cerevisiae UUG-firefly luciferase reporter, luminescence/redox ratio. activity score, % at 18.7 µM. 350,000 compounds, 0.13% hits. AID 602363, 2012;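 active = replicate mean at a twofold rise or more, about +100% in these data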;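 note: firefly luciferase made from a UUG start codon reports start codon fidelity; reporter light over untreated wells divided by growth signal over untreated wells; some hits fall short of that in this replicate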
# eIF4H inh = human eIF4H binding inhibitors, primary screen, translation initiation inhibitor project, biochemical, uHTS, fluorescence polarization. eIF4H fluorescence polarization binding assay. inhibition, % at 35 µM. 290,000 compounds, 0.94% hits;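 active = 50% or more with normal probe brightness, or confirmed in later tests; inconclusive = above 50% with abnormal brightness, or retests that disagree; inactive = below 50% or failed in later tests; about a fifth of its hits are not listed in these tables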;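 note: calls also rest on retests at 20 µM and on dose response follow-up; 0% = protein and probe with vehicle and 100% = probe without protein; strong numbers were not always called active; many hits fall short of the cut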
# eIF4H inh retest = second read-out of eIF4H inh, no call of its own (marks repeat the call); inhibition, %; compound at 20 µM; confirmation average;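 mean of two retest wells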
# PABP FP inh retest = second read-out of PABP FP inh, no call of its own (marks repeat the call); inhibition, %; compound at 20 µM; confirmation repeats;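 mean of two retest wells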
# MT1-MMP act inh RFP = also measured in MT1-MMP act inh; calls as there; RFP signal change, %; measured here: RFP expression control read;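 0 = vehicle wells; hits needed this value within 50% of zero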
# An asterisk follows results filed as active; i = inactive; ? = inconclusive; . = no result given; & = joins results of further samples.
SMILES,PABP FP inh,Env fusion inh,CSC inhib,MT1-MMP act inh,MT1-MMP act inh RFP,Rce1 inhib,Yeast UUG start,eIF4H inh,others
CC1CCN(Cc2c(C(=O)N/N=C/c3ccc(C(F)(F)F)cc3)nnn2-c2nonc2N)CC1,5,-5,18,-3,-2,i,-11,-4,
Cc1ccc(C(=O)C2CC2)cc1C,.,3,.,-4,-1,.,3,.,
Cc1cc(C)n2c(nc3ccccc32)c1C(=O)NN,-13,-29,-5,4,0,i,-23,-5,
Cc1c(Cl)cccc1NC(=S)Nc1ccc2[nH]c(=O)[nH]c2c1,2,-23,1,2,4,i,-22,-5,
Cc1cccc(C)c1NC(=O)CN(C)C(=O)/C=C/c1cccs1,4,-11,.,-3,2,i,-8,9,
CSCCC(NS(=O)(=O)c1cc(C(=O)O)ccc1Cl)C(=O)O (configuration not stated),8,5,-19,-2,1,i,.,-7,
Cc1nn(C)c(C)c1/C=C/C(=O)O,0,-16,.,-2,-3,i,-9,10,
CC(=O)Nc1ccccc1C(=O)C(=O)Nc1ccccc1,1,-24,13,2,2,i,1,-4,
CC(C)C(=O)Nc1ccc(NC(=O)c2ccc3c(c2)OCO3)cc1,-8,-18,-5,3,4,i,-2,-3,
COc1ccc(Br)cc1C(=O)NC(=S)Nc1c(C)n(C)n(-c2ccccc2)c1=O,2,-1,-3,-7,-5,i,-16,-6,
CN1CCN(CC(O)COc2ccc(S(=O)(=O)N3CCOCC3)cc2)CC1 (configuration not stated),.,-30,.,-1,1,.,-20,.,
COc1cc(NC(=O)Cc2cccs2)c(C(=O)O)cc1OC,-6,6,1,5,4,i,-12,10,
CC(=O)Nc1cccc(NC(=O)C2CCCN2C(=O)Nc2cccc(F)c2)c1 (configuration not stated),3,.,11,-2,4,i,0,-2,
COC(=O)c1ccccc1NC(=O)c1onc(C)c1Cl,-13,19,.,2,-3,i,-24,-4,
Cc1cccc(N(Cc2ccccc2)C(=O)c2ccccc2S(C)(=O)=O)c1,0,-6,-17,-3,0,i,0,-4,
Cc1cc(Oc2ccccc2)nc(SCC(=O)Nc2ccc(Cl)cc2Cl)n1,-6,17,.,0,-1,i,-18,-5,
CC1CCN(C(=O)c2ccc3ccccc3c2)CC1,-5,-26,-3,-16,-2,i,-1,-5,
O=C(OCC(O)C(O)COC(=O)c1ccccc1)c1ccccc1 (configuration not stated),-1,.,6,3,1,i,0,6,
CCOC(=O)c1cnc2c(CC)cccc2c1NCCN1CCOCC1,-1,6,36,4,-1,i,-22,-2,
Cc1ccc(C(C(=O)NC2CCCCC2)N(C(=O)c2csnn2)C2CCCC2)o1 (configuration not stated),-1,71*,-13,-5,-1,i,-4,11,
O=C(NCc1ccco1)c1cccc(-c2ccc3nncn3c2)c1,.,-22,.,8,12,.,-16,.,
COCc1ccc(CN2CCC(n3nccc3NC(=O)CCCc3ccccc3)CC2)o1,1,9,-7,1,0,i,-15,15,
CC(OC(=O)CNC(=O)c1ccccc1)C(=O)Nc1ccc(S(=O)(=O)N2CCOCC2)cc1 (configuration not stated),.,-4,.,2,1,.,-13,.,
COC(=O)[C@H](CC(C)C)NC(=O)/C=C/[C@H]1O[C@@H](n2ccc(=O)[nH]c2=O)[C@H](O)[C@@H]1O,.,0,.,4,1,.,6,.,
O=C(NCc1ccccc1)c1cc(C2CCCCN2C(=O)c2ccc(Cl)cc2)on1 (configuration not stated),.,-4,.,-4,-9,.,-6,.,
N/C(=N\OC(=O)c1ccc(Cl)cc1)c1cccnc1,-10,.,-11,.,.,i,-25,-13,
O=C(NCC(=O)N1CCN(S(=O)(=O)/C=C/c2ccccc2)CC1)c1ccccc1F,-2,19,-13,1,4,i,.,-10,
c1ccc(N2CCN(C3CC4CCC3C4)CC2)cc1 (configuration not stated),-6,0,-13,-2,-1,i,-14,-2,
CCCc1nnc(SCC(=O)Nc2ccc(NC(C)=O)cc2)n1-n1cccc1,.,3,-7,0,3,i,-13,.,
Cc1ccc(-n2nc3ccc(NC(=O)c4ccc5c(c4)OCO5)cc3n2)cc1,4,-50,6,-1,-1,i,-15,14,
CCOc1cccc(OCCCNCCCOC)c1,0,.,-3,1,5,i,.,-13,
COc1cc(CN2C(=O)C(Cc3ccccc3)ON=C2c2ncccc2C)cc(OC)c1 (configuration not stated),.,6,.,0,-1,.,-16,.,
CC(=O)N1CC2(NC(=O)c3ccccc3N2)c2ccccc21 (configuration not stated),-6,-7,-11,2,7,i,-15,-7,
Cc1cc(C)nc(NS(=O)(=O)c2ccc(NC(=O)CN3C(=O)c4ccccc4C3=O)cc2)n1,2,-23,-7,.,.,i,.,-1,
O=C(NCc1ccco1)C(C(=O)c1ccc(F)cc1)n1ccccc1=O (configuration not stated),0,-34,-2,1,5,i,-10,4,
O=C1C2C3C=CC(C3)C2C(=O)N1c1ccncc1 (configuration not stated),-11,.,0,-2,5,i,-12,-2,
CCN(CC)C(=O)CSc1nnc(CCN)o1,-1,-26,5,0,3,.,-20,-13,
COc1cc(OC)cc(C(=O)NNC(=O)c2ccc(-n3cncn3)c([N+](=O)[O-])c2)c1,.,-1,-13,-3,1,i,-18,.,
Cc1cccc(NC(=O)CC23CC4CC(C2)CC(n2nnc(C)n2)(C4)C3)c1,0,.,-11,-5,-1,i,6,2,
COc1ccc(N2CCN(CC(=O)NC(=O)NCc3ccco3)CC2)cc1,1,9,-5,2,0,i,.,2,
CC(=O)c1ccccc1C(=O)N1CCCC(C(=O)c2ccc(C(F)(F)F)cc2)C1 (configuration not stated),0,-19,-8,5,1,i,-2,5,
Cc1cccc(C(=O)N=c2c(C#N)cc3c(=O)n4cccc(C)c4nc3n2Cc2ccco2)c1,118,5&-177,12,-2&2,2&4,i,-27,89,eIF4H inh retest=-8;PABP FP inh retest=9
O=C(COC(=O)/C=C/c1ccc([N+](=O)[O-])cc1)NCC1CCCO1 (configuration not stated),8,1,-6,-6,-7,i,.,7,
COc1cc(C(=O)NCCC(=O)NCCN2CCOCC2)cc(OC)c1OC,-1,.,-17,1,4,i,-11,-16,
N#Cc1c(N)n[nH]c1Cc1cccc2ccccc12,.,3,8,3,-1,i,-7,.,
CCC(=O)Nc1cc2c(C)cc(=O)oc2cc1C,6,-154,-9,1,5,i,-16,-6,
CCCCOC(=O)/C=C\C(=O)NC(N)=O,11,17,12,-60,-9,i,-23,38,
COc1ccc(-n2nc(C(=O)NCC(=O)N3CCCCC3)c3ccccc3c2=O)cc1,-12,-12,18,0,4,i,-7,-15,
COC(=O)[C@H](CC(C)C)NC(=O)NCCC1=CCCCC1,2,5,6,-2,2,i,.,3,
COC(=O)CCN1CCC2CC1c1cc(N3CCCCC3)ccc12 (configuration not stated),.,17,.,-2,3,.,-2,.,
# New compounds follow.
SMILES,PABP FP inh,Env fusion inh,CSC inhib,MT1-MMP act inh,MT1-MMP act inh RFP,Rce1 inhib,Yeast UUG start,eIF4H inh,others
CCc1nn(CCCC(=O)N(C)Cc2ccccc2)c(=O)c2cc3occc3n12,0,21,-5,4,7,i,-5,5,
O=C(c1ccncc1)c1nccn1-c1ccccn1,2,.,.,0,4,i,-5,-4,
Cc1cccc(S(=O)(=O)N2CN(CC3CCCO3)c3nc4ccccc4nc32)c1 (configuration not stated),6,-5,-1,-2,1,i,9,-12,
Cc1nnc(N/N=C/c2c[nH]c3ccccc23)[nH]c1=O,7,-45,-8,13,4,.,-21,-2,
N#CCCN(Cc1ccccc1)C(=O)Nc1ccc2c(c1)CCO2,1,-4,2,2,3,i,-13,-5,
COc1ccccc1NC(=O)C(=O)N(c1cccnc1)C(C(=O)NC(C)(C)C)c1ccccc1F (configuration not stated),0,10,-6,-1,0,i,.,2,
COc1cccc(NC(=O)c2cnc(SCC(=O)NCc3ccc4c(c3)OCO4)n(C)c2=O)c1,.,.,1,4,3,i,.,.,
Cc1ccc(Nc2nc(CSc3nnc(-c4ccc(F)cc4)n3C)cs2)cc1,6,-12,-13,-10,-5,i,-4,-1,
O=C1CC(C(=O)N2CCN(c3ccccn3)CC2)CN1Cc1ccccc1Cl (configuration not stated),.,.,.,2,4,i,-2,.,
CC(=O)c1sc(-c2ccc(F)cc2)cc1NS(=O)(=O)c1ccc(C)cc1,-7,-8,1,-2,-5,i,.,-7,
CCCNC(=O)C1(C)CCN(CCOc2ccc(Cl)cc2)C1 (configuration not stated),.,6,.,0,0,.,-5,.,
Cc1c(C(=O)c2ccccc2)c2ccccn2c1CCc1ccccn1,8,27,-10,4,4,.,.,?,
CCO[C@@H]1OC(C(=O)N2CCN(Cc3ccccc3)CC2)=C[C@H](c2coc3ccccc3c2=O)[C@H]1CCCO,12,7,1,.,.,i,-18,9,
Cc1ccc2c(c1)C(C)CC(C)(C)N2C(=O)CN1CCN(C)CC1 (configuration not stated),1,3,-2,1,2,i,.,6,
CCOC(=O)C1(Cc2cccc(Cl)c2)CCCN(C(=O)c2cc(C)on2)C1 (configuration not stated),7,-7,-4,0,1,i,-7,-3,
COc1cc2c(C(=O)N3CCN(c4cccc(Cl)c4)CC3)cn(C)c(=O)c2cc1OC,-7,-103,32,-3,-13,i,0,-4,
CCOc1ccccc1NC(=O)c1ccccc1N(C)S(=O)(=O)c1ccc(C)cc1,.,41,26,2,-4,i,.,.,
CCc1ccc(NC(=O)C2CCN(S(=O)(=O)c3ccc4c(c3)NC(=O)C(C)S4)CC2)cc1 (configuration not stated),?,9,13,-3,-30,i,9,?,
Cc1ccc(NC(=O)COC(=O)C2(CC(=O)NC(C)(C)C)CCCC2)cc1C,.,10,15,1,-7,.,5,.,
COc1ccc2[nH]c(=O)c(CN(C(=O)c3cccnc3)c3ccc(C)cc3C)cc2c1,-2,28,-12,-1,-1,i,-9,-6,
COc1ccc(CCNC(=O)c2c(C)noc2C)cc1,-1,.,-6,3,1,i,-27,-6,
COc1ccc(-c2c(C#Cc3ccsc3)c3cc(-c4ccc(C(N)=O)cc4)ccc3n2C)cc1,.,-17,.,1,-2,.,-20,.,
Cc1ccc(NC(=O)COC(=O)CCc2ccccc2)c(Cl)c1,-4,-9,-24,3,4,i,-10,-3,
COc1ccc(/C=N/NS(=O)(=O)c2ccccc2)cc1OC,8,-2,-10,1,-12,i,-6,7,
COc1ccc(NC(=O)c2ccc(S(=O)(=O)N(C)C)cc2)cc1,-12,16,6,-9,-7,i,.,8,
C=CCC12C=C(OC)C(=O)OC(OC)(C1O)[C@H](c1ccc3c(c1)OCO3)[C@H]2C (some centres not stated),.,.,-11,-1,2,i,-7,.,
O=C(NCC1CCCO1)C1CC(c2ccccc2Cl)=NO1 (configuration not stated),-3,-33,-10,11,12,i,-5,3,

# Screening results from PubChem BioAssay.
